Screens from PubChem BioAssay.
AID504770: growth inhibitors of E. coli YBA685 in a screen for V. cholerae RctB (chromosome II replication) inhibitors; E. coli YBA685 rctB-dependent plasmid, OD600 growth, 3 h; active compounds read low; z-score (concentration not given with the values); 130,000 compounds, 0.27% hits;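 active = z-score under -2 on both plates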;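 note: wells of about 30 µL received 100 nL stock; score is relative to mean and SD of the test wells; the first replicate is given; strong numbers were not always called active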
Ba CapD inh: CapD enzyme inhibition; purified CapD enzyme, fluorescence intensity read-out; active compounds read low; some hits fall short of the stated cut; 140,000 compounds, 0.23% hits; z-score (no concentration beside the values);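 active = z-score under -4 in either of two replicates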;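 note: stock transfer was 100 nL into about 40 µL; score is relative to mean and spread of the plate; one replicate is shown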
* hit, by the source's call; nt = not tested or not shown; & = joins results of further samples.

SMILES	AID504770	Ba CapD inh
O=S(=O)(NCCc1nnc2ccc(SCc3ccccc3)nn12)c1ccccc1	0.2	0.655
COC(C)C(O)(C(=O)OC1=CCN2CC[C@H](O)[C@@H]12)C(C)C (stereo not given in full)	-0.9	0.06
Cc1cc(=O)oc2c(C)c3oc(C(=O)c4ccc(Cl)cc4)c(-c4ccccc4)c3cc12	nt	-0.255
NC(N)=NCCCCN=C(N)N	nt	1.25&-0.685
Cc1cc(=O)nc2c3ccccc3n(C(C)C(=O)Nc3c(F)c(F)cc(F)c3F)n12 (stereo not given)	-0.55	1
COC(=O)c1ccccc1NC(=O)c1ccccc1	nt	0.435
Cc1cc(NC(=O)COC(=O)C2=COCCO2)n(-c2ccccc2)n1	0.3	nt
Cc1cc(C(=O)/C(C#N)=C/Nc2cccc(OC(F)(F)F)c2)c(C(F)(F)F)o1	1.4	-0.355
Cc1nc(C(F)(F)F)ccc1C(=O)Nc1oc(-c2ccccc2)cc1C#N	2.3	0.91
c1csc(-c2csc(N3CCCCC3)n2)c1	-0.45	nt
O=C(CC12CC3CC(CC(C3)C1)C2)Nc1ccc2oc(-c3ccncc3)nc2c1	1.8	3.33
CC12C=CC(O1)C1C(=O)N(c3ccccc3Cl)C(=O)C12 (stereo not given)	1.8	-0.33
CC(=O)Nc1cccc(Oc2c(F)c(F)c(F)c(F)c2F)c1	0.2	-0.74
O=C1C(=O)N(Cc2c(Cl)cccc2Cl)C(=O)N1Cc1cccc(Cl)c1	nt	-0.005
CC(C)C(=O)N(c1ccc2oc(=O)sc2c1)S(=O)(=O)c1ccccc1	-0.6	-1.76
O=C(Nc1ccc2oc(-c3cccc(Cl)c3)nc2c1)c1ccc2c(c1)OCCO2	nt	6.05
Clc1ccc(CN2C3=NCCCN3c3ccccc32)c(Cl)c1	0.1	-0.12
Cc1n[nH]c(C)c1S(=O)(=O)N1CCCCC1	-2.2	-0.05
COc1ccc(-c2c(C(=O)O)sc(SC)c2C#N)cc1	nt	-0.06
COC(=O)C1=C(C)NC(=O)NC1/C=C/c1ccccc1 (stereo not given)	-0.25	1.42
Cc1csc2sc(-c3ccnc(SCC(=O)NC(C)C)n3)c(C)c12	0.9	0.45
CC1=CCC(C(=O)O)C(C(=O)Nc2ccc(-c3nc4ccc(C)cc4s3)cc2)C1 (stereo not given)	-0.45	41.2
CCn1c2ccccc2c2cc(CN3CCN(C(=O)c4ccccc4OC)CC3)ccc21	nt	14
CCOC(=O)N1CCN(c2ccc(O)cc2)CC1	0.8	0.48
Cc1ccc2nsnc2c1S(=O)(=O)N1CCN(C23CC4CC(CC(C4)C2)C3)CC1	nt	-0.63
Next records follow:
SMILES	AID504770	Ba CapD inh
Cc1ccccc1C(=O)OCCN1CCCCC1	0.7	0.72
Cc1ccc(/C=C2/SC(=S)N(CCC(=O)N3CCOCC3)C2=O)cc1	2.65	-2.58*
COc1ccccc1CCOC(=O)NNC(=O)c1snnc1-c1ccccc1	nt	-1.42
CC(=O)N1CCc2cccc(NC(=O)C(C)Sc3nc(C)cc(C)n3)c21 (stereo not given)	nt	0.03
CC(NC(=O)NC1CCN(c2nc3ccccc3s2)CC1)c1cccs1 (stereo not given)	1.75	nt
CS(=O)(=O)NCCc1nc(-c2ccccc2)cs1	-1.3	-0.175
Cc1cc2ncn(Cc3ccccc3F)c2cc1C	-1.1	-0.285
O=C(O)c1ccnc2ccccc12	nt	0.285
O=c1[nH]cccc1C(F)(F)F	nt	0.575
COCCn1cnnc1SCC(=O)C12CC3CC(CC(C3)C1)C2	1.6	nt
COc1ccc(-c2csc(C3=C(O)CN(CCC(C)C)C3=N)n2)cc1OC	0.15	nt
O=C(OCc1ccc(Br)cc1)c1cccnc1	-0.05	-0.86
C/C(O)=C(/C#N)c1nnc2n1CCCCC2	-0.05	0.045
CCCc1cc(=O)n2[nH]c(-c3ccccc3)cc2n1	1.4	2
CC(=O)Nc1cc(OC(=O)c2ccco2)cc(OC(=O)c2ccco2)c1	-0.5	-0.33
OC(CNCc1ccc(-c2ccccc2Cl)o1)c1ccccc1 (stereo not given)	-1.1	nt
Cc1ccc(NS(=O)(=O)CC23CCC(CC2=O)C3(C)C)cc1 (stereo not given)	-0.2	0.245
O=C1NN(C(=O)Nc2ccc(Br)cc2)[C@@H](c2ccccc2)[C@@H]1c1ccccc1	1.85	-0.955
O=C(Nc1ccc(C(=O)NC2CCCCC2)cc1)c1cncc(Br)c1	0.45	0.39
CC1CCCC(C)N1C(=O)CN(C)S(=O)(=O)c1ccc2c(c1)OCCO2 (stereo not given)	1.8	nt
Nc1ccccc1C(=O)NCc1ccc2c(c1)OCO2	1.75	104
CCOC(=O)c1cnc(SC)nc1Oc1cc(Cl)c(Cl)cc1Cl	nt	-0.74
CCOC(=O)c1ccc(N2C(=O)CSC2c2ccccc2)cc1 (stereo not given)	0.85	1.25
O=C(Nc1nc(-c2ccc(Cl)c(Cl)c2)cs1)C1CC1	2.35	-0.715
Cc1cc(C(=O)O)ccc1N/C=C1\CCCC(C)C1=O (stereo not given)	1.35	0.675
(more compounds)
SMILES	AID504770	Ba CapD inh
O=C(Nc1ccc(OC(F)(F)F)cc1)c1ccc(=O)n(Cc2ccccc2)c1	nt	0.25
O=S(=O)(CCSc1nccc(-c2cccs2)n1)c1ccc(Cl)cc1Cl	-0.5	1.91
COC(=O)c1ccc(Cn2nc(C)c(Cl)c2C)cc1	-0.4	0.07
COc1ccc(CCNc2cc(=O)oc3ccccc23)cc1OC	-1.7	-0.465
COc1ccc(/C=N/NC(=O)c2sc(C)nc2C)cc1	-0.25	nt
Cc1ccc(/C=N/NC(=O)c2ccc3ccccc3c2)s1	nt	0.77
Cc1ccccc1-c1nc2cc(NC(=O)C3CC3)ccc2o1	0.85	67.2
Cc1ccc(S(=O)(=O)NCCSc2nncn2C)cc1	-0.85	-0.175
O=c1cc(-c2cccs2)oc2ccccc12	-0.75	77.6
CCN1C(=O)c2ccccc2S(=O)c2ccc(C(=O)N3CCc4ccccc4C3)cc21 (stereo not given)	0.8	-0.62
O=[N+]([O-])c1cc(S(=O)(=O)N2CCOCC2)cc2c1-c1c(cc(S(=O)(=O)N3CCOCC3)cc1[N+](=O)[O-])C2=NO	nt	-0.23
O=C(NC1CCS(=O)(=O)C1)c1ccc(Br)cc1 (stereo not given)	nt	-0.135
CC(=O)Oc1cc2c(C(=O)NC3CC(C)(C)NC(C)(C)C3)c(C)oc2c2ccccc12	-0.3	nt
CCOC(=O)CN1NC2(CCCCCCC2)NC1=S	1.35	-0.445
CCN1C2=C(C(=O)CCC2)C(c2cccc(O)c2)C2=C1CCCC2=O	-0.35	-0.555
CCCNC(=O)C1CCN(C(=O)c2cc3sccc3n2Cc2ccc(Cl)cc2)CC1	-1	0.455
CC(C)NC(=O)CSc1nccc(-c2cccs2)n1	0.55	11.1
Cc1noc2ncnc(N(C)Cc3ccccc3)c12	-1.3	0.015
CCC1(CC)C(=O)N=C(SCC(=O)Nc2c(C)n(C)n(-c3ccccc3)c2=O)N(C)C1=O	-0.6	-0.55
CCOC(=O)C1=C(C)N=c2s/c(=C\c3cccc(OC)c3OC)c(=O)n2C1c1ccc2c(c1)OCO2 (stereo not given)	nt	0.22
COc1ccc(Nc2nc(Nc3ccc([N+](=O)[O-])cc3)nc(OC)n2)cc1	nt	-1.1
O=C(Nc1cccc(C(F)(F)F)c1)c1ccc(-c2ccccc2F)cc1	nt	0.74
CCn1c(SCc2nc3ccc([N+](=O)[O-])cc3[nH]2)nc2ccccc21	nt	-0.335
COc1ccc(CC(=O)N2CCN(c3ncccn3)CC2)cc1OC	-0.7	3.15
CN(C)c1ccc(/C=c2/sc3nc(-c4ccc(Cl)cc4)nn3c2=O)cc1	nt	0.14

Rewritten bar-delimited: four of the compounds above.
SMILES | AID504770 | Ba CapD inh
CN(C)c1ccc(/C=c2/sc3nc(-c4ccc(Cl)cc4)nn3c2=O)cc1 | nt | 0.14
O=S(=O)(CCSc1nccc(-c2cccs2)n1)c1ccc(Cl)cc1Cl | -0.5 | 1.91
COc1ccc(CCNc2cc(=O)oc3ccccc23)cc1OC | -1.7 | -0.465
Cc1ccccc1-c1nc2cc(NC(=O)C3CC3)ccc2o1 | 0.85 | 67.2

Additional records
SMILES	AID504770	Ba CapD inh
CCC(=O)N1CCC(N(C2CC2)S(=O)(=O)c2ccc(Cl)cc2)CC1	nt	-0.665
CCOc1ccc2nc(NC(=O)c3ccncc3)sc2c1	-0.2	-1.07
CC1CC(C)(C)OC(c2ccccc2)O1 (stereo not given)	0.3	-0.315
Cc1ccc(C23CC4CC(CC(C(=O)NC(C)(C)CO)(C4)C2)C3)cc1	nt	-0.175
COc1ccc(N=C2NC(=O)/C(=C\c3ccc(N(C)C)cc3)S2)cc1	nt	-0.265
Cc1ccc2c(c1)C(C)(C)C1(/C=C/c3cccnc3)NC(=O)CN21 (stereo not given)	nt	-0.195
CCOC(=O)c1sc(=S)n(-c2ccc(Cl)c(Cl)c2)c1N	nt	-0.15
CC1(C)CC(=O)C2=C(C1)Nc1[nH]n(-c3ccccc3)c(=O)c1C2c1ccco1 (stereo not given)	1.3	-4.56*
CC1(C)CC(=O)c2sc(NS(C)(=O)=O)nc2C1	-0.5	-0.595
CCOc1ccc(N2CC(O)(c3ccc(OC(F)F)cc3)[N+]3=C2CCCC3)cc1 (stereo not given)	nt	-0.065
COC(=O)c1ccc(C(=O)OC)c(N(C)S(C)(=O)=O)c1	-0.2	0.425
CCOC(=O)c1csc(-c2ccncc2)n1	nt	1.58
O=c1onc(-c2ccccc2)n1-c1cccc(Cl)c1	-0.75	0.48
Cc1[nH]c2ccccc2c1Sc1ccccc1	1	0.265
CN=C1SC(CC(=O)Nc2ccc(Br)cc2)C(=O)N1/N=C/c1cccs1 (stereo not given)	0.05	nt
COc1cc(C(=O)N2CCC3(CC2)N=C(C)C(c2cccc(C(F)(F)F)c2)=N3)cc(OC)c1OC	nt	-0.405
CCOC(=O)C1CCCN(C(=O)c2sc3nc(-c4ccccc4)cn3c2C)C1 (stereo not given)	-0.05	-0.265
N#C/C(=C\Nc1ccc2c(c1)OCCO2)S(=O)(=O)c1ccc(Cl)cc1	0.85	-0.2
COC(=O)c1c(C)oc2ccc(NS(=O)(=O)c3ccc(C)cc3)cc12	0.45	0.605
CCCc1ccc(C(=O)Nc2cccnc2Oc2ccc(OC)cc2)cc1	nt	-0.02
Cc1cc(C(=O)O)c2cc(O)ccc2n1	0.3	-0.56
Cc1ccc(S(=O)(=O)C=C(c2ccccc2)c2ccccc2)cc1	-0.4	-0.06
O=c1[nH]cnc2c1nnn2Cc1ccccc1F	-0.8	nt
O=C(Cn1nnc2ccccc21)N1CCN(c2ccccc2)CC1	-0.4	0.235
ON=C1C/C=C\CC(=NO)C/C=C\C1	nt	0.345

Six structures already listed, sorted by length of the SMILES, ascending.
SMILES	AID504770	Ba CapD inh
Cc1cc(C(=O)O)c2cc(O)ccc2n1	0.3	-0.56
O=c1[nH]cnc2c1nnn2Cc1ccccc1F	-0.8	nt
O=c1onc(-c2ccccc2)n1-c1cccc(Cl)c1	-0.75	0.48
COC(=O)c1ccc(C(=O)OC)c(N(C)S(C)(=O)=O)c1	-0.2	0.425
CN=C1SC(CC(=O)Nc2ccc(Br)cc2)C(=O)N1/N=C/c1cccs1 (stereo not given)	0.05	nt
Cc1ccc(C23CC4CC(CC(C(=O)NC(C)(C)CO)(C4)C2)C3)cc1	nt	-0.175

Full records, looked up by structure. Screens in order: AID504770	Ba CapD inh
Listed for `CCOC(=O)c1sc(=S)n(-c2ccc(Cl)c(Cl)c2)c1N` = nt	-0.15
Listed for `CC1CC(C)(C)OC(c2ccccc2)O1` (stereo not given) = 0.3	-0.315
Listed for `Cc1ccc2c(c1)C(C)(C)C1(/C=C/c3cccnc3)NC(=O)CN21` (stereo not given) = nt	-0.195
Listed for `CCC(=O)N1CCC(N(C2CC2)S(=O)(=O)c2ccc(Cl)cc2)CC1` = nt	-0.665

2 entries from above, set out differently.
> Cc1cc(=O)nc2c3ccccc3n(C(C)C(=O)Nc3c(F)c(F)cc(F)c3F)n12 (stereo not given)
  AID504770: -0.55; Ba CapD inh: 1

> COC(=O)c1ccccc1NC(=O)c1ccccc1
  AID504770: nt; Ba CapD inh: 0.435

Following part
SMILES	AID504770	Ba CapD inh
NCCCC(=O)O	0.4	-1.11
O=C1CC(c2ccccc2)C(=O)N1Cc1ccc(Cl)cc1 (stereo not given)	1.35	nt
Cc1cc2cc(CNC(=O)NC3CCCCC3)ccc2[nH]1	-0.6	nt
N#Cc1c(-c2cccs2)c2c([nH]c1=O)CCCC2	0.45	0.56
C=CCn1c(-c2cccs2)nc(-c2ccccc2)c1-c1ccccc1	-0.4	80.9
CCC(Sc1n[nH]c(=O)[nH]c1=O)C(=O)O (stereo not given)	-0.15	-0.465
CN(C(=O)COc1cc(C(F)(F)F)n(C)n1)c1ccccc1	1.65	-0.3
